D2 ag: agonists of human D2 dopamine receptor (beta-arrestin) | 0.084% of 360,000 active | AID 624465 | activation, % (test concentration not listed) | DiscoveRx PathHunter D2 beta-arrestin, luminescence, 90 min; 100% = 57 uM dopamine signal; in the data active = activation above about 40%; inconclusive = about 15% to 40%; inactive = below about 15%; also: compound concentration not given in the record; the text of the record calls up to 30% inactive
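DiscoveRx PathHunter D2 beta-arrestin cells (2,100/well) attached overnight, then compound-stimulated 90 min at 37 C in HBSS/10 mM HEPES/0.1% Tween-20 buffer; beta-galactosidase complementation read by luminescence after 1 h at ambient temperature. Dopamine 57 uM final (EC100) as control.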
PINK1 expr mod: PINK1 expression modulation. PINK1 immunofluorescence, high-content cytometry, 24 h. Potency, µM (highest dose often 76.6 µM), for inactives: top-dose activation (PINK1 increase), hits mostly activators. 0.2% of 410,000 active. AID 624263; active = well fitted activation curve with a large enough effect; inconclusive = small, poorly fitted or top-dose-only effect; inactive = flat fitted curve, though single readings scatter; cell line not stated here;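 also: potency is read from the fitted curve at half-maximal effect; % of control where 0% means no effect; nearly all actives have a fitted effect of over 65% in size; a mitochondrial uncoupler was the plate control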
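PINK1 protein level read as immunofluorescence by microplate cytometer in a fixed, stained stable cell line after 24 h exposure to five compound concentrations, with CCCP as control.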
D2 PAM: human D2 receptor positive allosteric modulation; P14416; DiscoveRx D2 beta-arrestin cells, luminescence, 90 min; 100% = 57 uM dopamine signal; potentiation, % (no concentration beside the values); 0.23% of 360,000 active; AID 624464; active = potentiation of 50% or more; inconclusive = 30% to 50%; inactive = 30% or less;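 also: compound concentration not given in the record; tested on top of an EC20 dose of dopamine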
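D2 cells co-treated with compound plus 50 nM dopamine (EC20) for 90 min at 37 deg C to detect potentiation. Beta-arrestin recruitment was read as enzyme-fragment luminescence after 1 h at ambient temperature. Full response was set by 57 uM dopamine.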
Sfp inh: blocks B. subtilis Sfp PPTase activity; AID 1490; 3.5% of 310,000 active; Potency, µM, for inactives: max response, negative = inhibition, most hits filed as inhibitors; Biochemical Sfp PPTase activity, qHTS; active = well fitted inhibition curve with a large enough effect; inconclusive = small, poorly fitted or top-dose-only effect, or another doubt; inactive = no such curve, though single readings can be large or run the other way;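 also: the enzyme is Sfp with the accession as filed and its product quenches rhodamine fluorescence; potency is read from the fitted curve at half-maximal effect; 0% = enzyme reaction without inhibitor and -100% = no enzyme wells; top concentration of the series not given in the record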
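After 15 min at room temperature with compound, 15 nM Sfp received 5 uM rhodamine-CoA plus 12.5 uM BHQ-2-ybbR (50 mM Hepes pH 7.6, 10 mM MgCl2). Rate came from the fluorescence difference over 30 min, ex 525/em 598 nm.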
Six1-Eya2 blk: blocks human Six1 binding to Eya2; Q15475+O00167; AlphaScreen GST-Six1/His-Eya2 binding, biochemical; stronger effect = lower value; control for the full effect not named in the record; activity change, % (concentration not given with the values); 0.56% of 360,000 active; in the data active = activity change below about -65%; inconclusive = about -30% to -65%; inactive = above about -30%; also: % is scaled to controls: 0 for no effect and ±100 for the full control effect
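Homogeneous AlphaScreen proximity assay pairing GST-Six1 with His-tagged Eya2 (added as 5X mix: 250 nM and 500 nM) in 50 mM Tris pH 8.0, 300 mM NaCl, 1 mM TCEP. Glutathione donor and nickel acceptor beads; 1 h, 37 °C, dark.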
TRPV1 PAM: human TRPV1 potentiation. TRPV1-expressing cells, Fluo-8 calcium influx, capsaicin EC20 potentiation; host cell line not named in the record; control for the full effect not named in the record. potentiation, % at 8.33 µM. 0.02% of 320,000 active. AID 540277; active means potentiation above 80%; inconclusive means 30% to 80%; inactive means below 30%; also: 0% is about no effect
Target sequence (Q8NER1 whole entry, looked up): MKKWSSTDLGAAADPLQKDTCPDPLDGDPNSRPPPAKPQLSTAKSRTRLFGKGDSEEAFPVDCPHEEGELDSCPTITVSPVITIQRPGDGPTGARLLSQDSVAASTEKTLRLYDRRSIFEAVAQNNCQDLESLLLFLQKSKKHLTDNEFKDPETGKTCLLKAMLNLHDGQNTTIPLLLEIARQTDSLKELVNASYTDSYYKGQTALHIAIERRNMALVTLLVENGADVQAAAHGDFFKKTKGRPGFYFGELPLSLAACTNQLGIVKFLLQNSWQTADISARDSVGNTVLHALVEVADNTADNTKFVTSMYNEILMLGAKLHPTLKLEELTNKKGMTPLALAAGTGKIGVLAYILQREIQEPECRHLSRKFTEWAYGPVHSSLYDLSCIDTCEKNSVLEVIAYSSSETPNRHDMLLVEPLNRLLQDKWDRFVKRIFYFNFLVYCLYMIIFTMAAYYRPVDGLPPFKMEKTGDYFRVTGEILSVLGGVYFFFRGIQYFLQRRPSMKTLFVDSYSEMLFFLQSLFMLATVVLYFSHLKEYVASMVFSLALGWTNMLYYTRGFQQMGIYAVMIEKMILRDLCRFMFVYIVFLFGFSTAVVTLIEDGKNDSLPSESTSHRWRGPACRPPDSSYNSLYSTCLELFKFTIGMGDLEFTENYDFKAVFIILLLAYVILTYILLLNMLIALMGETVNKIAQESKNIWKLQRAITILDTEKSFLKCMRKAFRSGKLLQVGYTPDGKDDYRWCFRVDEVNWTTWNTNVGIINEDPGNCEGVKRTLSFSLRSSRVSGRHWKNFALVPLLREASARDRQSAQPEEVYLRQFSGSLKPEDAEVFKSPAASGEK
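Cells expressing TRPV1 were dye-loaded with Fluo-8 and read kinetically: 10 s baseline, 3 min after compound (agonist portion), then 2 min after EC20 capsaicin (allosteric enhancer portion). Calcium-bound dye fluorescence at 480/520 nm.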
CtBP-E1A inh: CtBP/E1A binding inhibition. AlphaScreen GST-E1A/His-CtBP binding, 1536-well; stronger effect = lower value; control for the full effect not named in the record. activity change, % (concentration not given with the values). 0.49% of 340,000 active. AID 651724; in the data active means activity change below about -65%; inconclusive means about -30% to -65%; inactive means above about -30%; also: % is scaled to controls: 0 for no effect and ±100 for the full control effect
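GST-E1A and His-tagged CtBP (125 nM each as 5X stock) were preincubated with pin-transferred compound for 2 h at 37 °C in the dark, then glutathione donor and nickel acceptor beads were added for 1 h before AlphaScreen reading.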
Active calls of the source: *; u = inconclusive; x = not tested or not shown; [ ] = remark or other dose.

SMILES	D2 ag	PINK1 expr mod	D2 PAM	Sfp inh	Six1-Eya2 blk	TRPV1 PAM	CtBP-E1A inh
Cc1nn(-c2ccccc2)c(C)c1C(=O)OCC(=O)NC(=O)NC1CCCC1	-1.6	-0.8%	-28	-7%	2	1	0
COc1cc(NC(=O)c2ccc3nsnc3c2)cc(OC)c1OC	-4.4	0.1%	-26	11%	-7	-13	-2
COc1ccc2[nH]c(=O)c(CN(CCO)S(=O)(=O)c3c(C)ccc4nsnc34)cc2c1	0.5	-0.3%	4	17%	-2	-8	-3
CCOC(=O)Cn1nc(C)n(-c2c(C)cccc2C)c1=O	3.2	2.3%	6	12%	13	25	-2
O=C(COc1ccccc1)N1CCN(S(=O)(=O)c2ccc(Cl)cc2)CC1	1.5	-13%[38.3 µM]	-14	8%	4	-6	7
N#Cc1nc(COc2ccccc2F)oc1NCc1ccc(F)cc1	4.5	3.5%	2	30%	-14	x	-2
CS(=O)(=O)Nc1ccc(C2=NN(C(=O)CCCC(=O)O)C(c3cccs3)C2)cc1 (stereo not drawn)	2.8	-1.1%	0	6%	3	5	6
COc1ccc(N2CCN(C(=O)c3ccc4c(=O)n(CC5CCCO5)c(=O)[nH]c4c3)CC2)cc1 (stereo not drawn)	-1.7	2.9%	-1	12%	0	-25	-6
O=C(Nc1ccc(C(=O)O)cc1)/C(=C\c1ccc2c(c1)OCO2)NC(=O)c1ccco1	-5.3	1.4%	-10	17%	2	7	7
CCOC(=O)C(=O)N(C)c1c(CC)nc2c(OCc3ccc(Cl)cc3)cccn12	-1.5	0.1%	-7	x	-10	x	-2
COc1ccccc1N1CCN(S(=O)(=O)c2ccc(NC(C)=O)cc2)CC1	4.0	3.7%	2	9%	1	1	-1
Cc1ccc(SC(CC(=O)c2ccc(C(C)(C)C)cc2)C(=O)O)cc1 (stereo not drawn)	-2.4	-3.3%	-10	28µM*	-16	6	3
CCN1C(=O)N(CC)C2C1N(CO)C(=O)N2CO (stereo not drawn)	-18	0.6%	-6	3%	1	5	0
COC(=O)c1cc2nc(-c3ccc(OC)c(OC)c3)cc(C(F)(F)F)n2n1	2.6	-3.4%	-8	12%	-10	-17	-13
O=C(COC(=O)Cc1ccc(Cl)cc1)NCCc1ccccc1	2.2	-0.1%	0	x	7	-2	-1
O=C(Nc1ccccc1F)C(=Cc1sc(N2CCOCC2)nc1-c1ccccc1)C(=O)Nc1ccccc1F	-2.4	2.9%	1	u	4	10	1
Nc1c(Cl)cc(-c2cn(CCC(=O)O)c(-c3ccncc3)n2)cc1Cl	-1.7	0.1%	-2	x	2	14	0
C=CCN1C(=O)C(CC(=O)NCC)SC1=Nc1ccccc1OC (stereo not drawn)	-1.7	0.3%	1	19%	11	-1	4
O=c1[nH][nH]c(=O)c(Cl)c1Cl	-2.6	-1.4%	-3	x	11	x	-22
CCCC(O)(c1ccc(OC)cc1)C(CN(C)C)c1ccccc1 (stereo not drawn)	-2.0	-4.6%[38.3 µM]	-3	-6%	3	-9	1
COC(=O)c1nn(-c2ccc(F)cc2)ccc1=O	-1.9	2.3%	-15	-2%	-5	x	7
Cc1cc(NC(=O)c2ccc3nccnc3c2)ccc1Br	3.3	9.1%	-18	x	-5	x	-2
CN(CC(=O)OCC(N)=O)S(=O)(=O)c1ccc(Cl)cc1	-5.0	2.8%	9	13%	5	4	-6
O=C(/C=C/c1ccccc1Cl)N1CCCN(C(=O)/C=C/c2ccccc2Cl)CC1	-1.0	-2.0%	-7	-11%	-10	-2	19
CCOC(=O)c1cn(CC)c2cc(F)c(F)cc2c1=O	-0.7	-0.4%	0	u	2	-13	-1
Next section.
SMILES	D2 ag	PINK1 expr mod	D2 PAM	Sfp inh	Six1-Eya2 blk	TRPV1 PAM	CtBP-E1A inh
CCC(=O)N1CCN(c2ccccc2NC(=S)NC(=O)c2ccco2)CC1	-4.1	1.6%	-2	u	-14	-18	-12
COc1ccc(Cl)cc1-n1c(C)cc(C=O)c1C	-3.8	3.0%	-8	14%	-1	-14	-1
CCOC(=O)Nc1ccc2c(c1)C(=NNC(N)=S)c1ccccc1-2	-2.0	-2.0%	-34	x	-79*	x	-65*
O=C(CN(Cc1ccccc1Cl)C(=O)CNS(=O)(=O)c1ccc(F)cc1)NCC1CCCO1 (stereo not drawn)	2.0	-0.7%	2	18%	0	-3	-1
C=CCOc1cccc(C2c3c(oc4ccccc4c3=O)C(=O)N2c2ccccn2)c1 (stereo not drawn)	-2.8	6.0%	1	4%	21	-6	6
Cn1nnnc1SCC(=O)NCC(=O)c1ccccc1	-0.9	-0.3%[38.3 µM]	-7	17%	5	6	15
O=C(COC(=O)c1ccc(F)c(S(=O)(=O)N2CCOCC2)c1)Nc1ccc2c(c1)OCO2	7.3	0.8%	-9	x	6	18	-7
CCOc1ccc(NC(=O)CSc2nc3cccnc3n2CC)cc1	-3.6	1.0%	-8	11%	-3	1	-2
O=C(COC(=O)c1cccc(S(=O)(=O)N2CCCCC2)c1)NC1CCCCC1	-4.3	2.3%	-5	x	1	-14	12
N#Cc1c(NC(=O)c2ccccc2)sc2c1CCCCC2	-2.2	2.6%	-10	1%	12	-11	-5
CCN(CC)S(=O)(=O)c1ccc(N=N/C(C(C)=O)=C(/C)O)cc1	0.1	0.4%	5	7%	2	-9	-10
COCCn1c(-c2ccc(OC)cc2)cnc1SCC(=O)Nc1ccc(OC)cc1OC	-0.5	2.6%	-15	-7%	-14	-3	-19
CC/C(C)=N\N=C\c1c(O)n(CC)c2cc(C3=NNC(=O)CC3)ccc12	-4.4	1.4%	-22	-2%	-16	4	-8
Cc1c(C(=O)N2CCCCC2)c(S(=O)(=O)N2CCN(c3ccccc3F)CC2)c(C)n1C	-7.8	0.9%	-9	15%	0	1	1
COC(=O)[C@H](CCSC)NC(=O)N1CCC(C)CC1	-0.2	5.8%[38.3 µM]	-2	-5%	6	-6	0
O=C1C=C(O)C(n2cncn2)C(c2ccc3c(c2)OCO3)C1 (stereo not drawn)	-1.4	0.2%	1	16%	17	-8	6
CC(O)(c1ccccc1)c1nc(-c2cccc(C#N)c2)cs1 (stereo not drawn)	-2.3	6.2%	0	x	2	x	2
CN1C2CCC1CC(NC(=O)c1cc(Cl)cc3[nH]cnc13)C2 (stereo not drawn)	-4.7	-1.4%	-25	-5%	-9	0	12
CCOc1ccc(CCN2C(=O)C(=O)N([C@@H](CC(C)C)CN3CCC[C@H]3CN3C(=O)C(=O)NC[C@@H]3CC(C)C)C[C@@H]2Cc2ccccc2)cc1	x	0.5%	x	x	14	x	-3
Cc1cccc(NC(=O)c2cccnc2Oc2ccccc2)c1C(=O)O	0.7	1.1%	2	6%	10	-1	2
COc1ccc(-n2ccnc(SCC(=O)NCc3ccc(C)cc3)c2=O)cc1Cl	-0.4	4.4%	-4	x	-2	-5	-4
CC1=CN2C(=NC(=O)CC2(C)C(=O)N(CC(=O)NC2CCCC2)c2cc(C)cc(C)c2)C=C1 (stereo not drawn)	-3.5	0.6%	-1	9%	2	1	x
CC1=C(C(=O)OC2CCCCCCC2)C(c2cccc(O)c2)NC(=O)N1 (stereo not drawn)	-1.2	0.2%[38.3 µM]	-1	-1%	0	0	-1
O=C(O)CNc1nc(NCc2ccc(Cl)cc2)ccc1[N+](=O)[O-]	-5.7	0.9%	-16	x	-3	x	-5
O=C(Cn1[nH]c(=O)c2ccccc2c1=O)NCc1cccnc1	-2.5	0.2%	-7	23%	0	13	2
(further entries)
SMILES	D2 ag	PINK1 expr mod	D2 PAM	Sfp inh	Six1-Eya2 blk	TRPV1 PAM	CtBP-E1A inh
CC(C)N=C(Nc1ccc(Cl)cc1)c1cccnc1	-4.2	4.1%	-4	23%	0	-14	-2
CC(OC(=O)c1cc(=O)c2ccccc2o1)C(=O)Nc1ccc(N(C)C)cc1 (stereo not drawn)	-0.2	3.3%	-4	x	-1	-6	-2
COC(=O)/C=C1\S/C(=N/N=C/c2ccco2)NC1=O	-0.3	-0.3%	-2	-9%	-6	8	x
CCOc1ccc(S(=O)(=O)n2cnc(C)c2)cc1	-1.7	3.8%	3	11%	-1	5	1
CC(=O)N(Cc1c(C)nn(-c2ccccc2)c1Cl)c1ccc(Cl)cc1	-2.9	1.7%	-12	-2%	4	x	-2
COc1ccc(C2=NOC(C)(c3nnc(-c4ccncc4)o3)C2)cc1 (stereo not drawn)	-2.8	0.0%	-13	x	5	x	x
COCCNc1c2c(nc3c(-c4ccccc4)c(C)nn13)CCCC2	-2.3	6.1%[38.3 µM]	-16	-8%	22	-10	24
Brc1ccc2c(c1)OCCOCCOCCOCCOCCO2	-4.5	-0.4%	4	3%	2	4	4
Fc1ccc(Nc2nc(N/N=C/c3ccco3)nc(N3CCCCC3)n2)cc1	1.3	3.1%	u	0%	-14	-7	x
CCc1nc(NCCN2CCOCC2)c(C#N)c2c1CCCC2	2.7	-1.1%	-23	3%	-21	-2	-12
CCOC(=O)C1CCN(c2c(-c3ccccc3)c3cc(Cl)ccc3[nH]c2=O)CC1	1.5	12%	-2	7%	-16	-25	15
O=S(=O)(NCc1ccccc1)c1ccc(-n2cccn2)cc1	0.0	0.7%	-5	10%	3	-3	x
CN(CCC(=O)Nc1ccc(Cl)cc1)Cc1ccccc1	-10.0	2.4%	-28	4%	-6	-10	-5
Cc1ccc(C(=O)NCC(=O)NCc2cc(=O)n(C)c(=O)n2C)cc1C	-5.7	0.7%	-7	10%	1	29	1
CC(=O)N1CCN(S(=O)(=O)c2cccc(C(=O)Nc3ccccc3N3CCCC3)c2)CC1	-4.1	0.1%	1	x	2	2	-21
COC(=O)Cn1ncc(N2C3CC(CC(C)(C)C3)C2C)c(Cl)c1=O (stereo not drawn)	0.3	-0.4%	-11	-1%	4	-2	0
Cc1cc(/C=N/NC(=O)c2ccoc2C)cc(C)c1O	-5.2	-0.2%	-10	x	19	x	-6

Sorted by the number under D2 ag (ascending): 4 from the list above.
molecule	D2 ag
Cc1cc(/C=N/NC(=O)c2ccoc2C)cc(C)c1O	-5.2
COc1ccc(C2=NOC(C)(c3nnc(-c4ccncc4)o3)C2)cc1 (stereo not drawn)	-2.8
CCOc1ccc(S(=O)(=O)n2cnc(C)c2)cc1	-1.7
CCc1nc(NCCN2CCOCC2)c(C#N)c2c1CCCC2	2.7

High-throughput results as filed in PubChem.

Random draw from the library; overall some 3.7% were active at least once.
